KCNQ2 block: KCNQ2 channel blockers in CHO-K1 cells – cell-based, FluxOR thallium flux, B-score, primary screen (AID 2156). O88943. 20 min; hits give low values; only compounds with negative scores are shown here; some inactives read as strong as hits. B-score at 10 µM. 310,000 compounds, 1.1% hits;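 active = fluorescence ratio B-score at most minus 3 library SDs, with starting brightness B-score within 2 library SDs, cut at about -5.5 in these data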
Target sequence (O88943 whole entry, looked up): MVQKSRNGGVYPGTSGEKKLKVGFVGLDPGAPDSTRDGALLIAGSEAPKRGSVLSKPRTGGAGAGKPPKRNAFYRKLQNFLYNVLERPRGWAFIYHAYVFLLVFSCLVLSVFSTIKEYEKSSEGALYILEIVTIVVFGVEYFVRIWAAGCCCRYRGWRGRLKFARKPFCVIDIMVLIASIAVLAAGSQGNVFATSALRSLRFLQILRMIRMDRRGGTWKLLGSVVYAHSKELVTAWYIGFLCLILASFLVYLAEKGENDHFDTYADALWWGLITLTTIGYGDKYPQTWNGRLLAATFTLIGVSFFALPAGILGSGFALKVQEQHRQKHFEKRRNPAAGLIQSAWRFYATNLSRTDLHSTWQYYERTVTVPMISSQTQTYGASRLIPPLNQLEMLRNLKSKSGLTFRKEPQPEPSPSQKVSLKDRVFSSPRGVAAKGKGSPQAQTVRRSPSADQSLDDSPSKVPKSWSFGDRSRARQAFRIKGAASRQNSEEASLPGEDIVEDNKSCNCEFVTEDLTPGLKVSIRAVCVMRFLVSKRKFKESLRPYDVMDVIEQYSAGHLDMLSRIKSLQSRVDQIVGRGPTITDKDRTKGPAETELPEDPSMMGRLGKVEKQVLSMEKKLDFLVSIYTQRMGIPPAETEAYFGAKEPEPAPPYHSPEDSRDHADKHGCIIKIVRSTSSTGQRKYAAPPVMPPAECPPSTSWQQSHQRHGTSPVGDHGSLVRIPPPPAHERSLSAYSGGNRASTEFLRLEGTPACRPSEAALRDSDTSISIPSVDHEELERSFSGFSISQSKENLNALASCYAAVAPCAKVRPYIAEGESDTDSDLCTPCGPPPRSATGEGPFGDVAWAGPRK
KCNQ2 block baseline: recorded beside KCNQ2 block, whose call it bears; B-score; measured here: initial fluorescence intensity artifact check;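 brightness before thallium and not channel activity; 0 = typical well and far values either way flag optical interference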
Active calls of the source: *; i = inactive.

KCNQ2 block,KCNQ2 block baseline,molecule
i,-0.54,O=C(c1cccc(N2C(=O)c3ccccc3C2=O)c1)N1CCCC(C(F)(F)F)C1 (configuration not stated)
i,-1.1,CC1(C)CC(=O)C(C=Nc2ccc(C(=O)c3ccccc3)cc2N=CC2=C(O)CC(C)(C)CC2=O)=C(O)C1
i,-0.39,FC(F)Oc1ccc(NC(=S)NCc2nc3ccccc3[nH]2)cc1
i,-0.01,CC(C)C(NC(=O)c1cccs1)C(=O)NC1CCCCC1 (configuration not stated)
i,1.2,CCC(C)N(C(=O)Cn1nnc2ccccc21)C(C(=O)Nc1ccc(F)cc1)c1cccc(OC)c1 (configuration not stated)
i,2.5,CCCn1c(SCC(=O)N2CCN(c3ccccc3)CC2)nc2ccccc2c1=O
i,-0.62,Cc1c(C)c2ccc(OCc3ccc(C(=O)O)o3)c(C)c2oc1=O
i,2.4,O=C(CC1C(=O)NCCN1Cc1ccccc1C(F)(F)F)NC1CCCC1 (configuration not stated)
i,-2,CC(=O)n1nc(-c2cccnc2)nc1NCc1cccs1
i,-0.02,Cn1c(=O)[nH]c(=O)c2c1nc(NCc1ccccc1)n2CCCc1ccccc1
i,-0.17,O=c1cc(Cc2ccccc2)[nH]c(=S)[nH]1
i,-0.15,Cn1c(SCC(=O)NCC2CCCO2)ncc(C(=O)Nc2ccc(Cl)cc2)c1=O (configuration not stated)

The last 3 compounds of the part above come first, to join the parts:
KCNQ2 block,KCNQ2 block baseline,molecule
i,-0.02,Cn1c(=O)[nH]c(=O)c2c1nc(NCc1ccccc1)n2CCCc1ccccc1
i,-0.17,O=c1cc(Cc2ccccc2)[nH]c(=S)[nH]1
i,-0.15,Cn1c(SCC(=O)NCC2CCCO2)ncc(C(=O)Nc2ccc(Cl)cc2)c1=O (configuration not stated)
i,-1.6,Cc1cccc(NS(=O)(=O)c2ccc3oc(=O)ccc3c2)c1C
i,0.35,COc1cccc(-c2csc(N3CCN(C(=O)Nc4ccc(Cl)cc4)CC3)n2)c1
i,-0.02,CN(C)CCCN(C(=O)c1cc2cc([N+](=O)[O-])ccc2s1)c1nc2cc3c(cc2s1)OCCO3
i,-0.19,CCOC(=O)C1(CC2CCCCO2)CCN(C(=O)Nc2ccc(C(=O)OC)cc2)CC1 (configuration not stated)
i,0.07,CCOC(=O)N1CCN(Cc2ccccc2F)CC1
i,-0.09,Cc1ccccc1-n1nc(C)c2c(C(=O)NN)cc(-c3ccncc3)nc21
i,-0.27,COc1cc(S(=O)(=O)N2CCCCC2)ccc1NC(=O)c1ccncc1
-6.9*,1.5*,Cc1cc(Cl)cc(C)c1OCCNCc1ccccc1
i,-0.16,COc1ccccc1NC(=O)CNC(=O)Cn1cnc2sc(C)c(C)c2c1=O
i,0.17,COc1ccc(C(C(=O)NC(C)(C)C)N(C(=O)Cn2nnc3ccccc32)c2cccc(C(C)=O)c2)cc1O (configuration not stated)
i,0.78,CCn1cc(CN2CCC(n3nccc3NC(=O)Cc3ccccc3)CC2)c(C)n1
i,-0.4,O=C(c1ccc(S(=O)(=O)N2CCCCCC2)cc1)N(c1ccccn1)C1CCCCC1
i,-0.4,COc1ccc(OC)c(C2C(C#N)=C(N)Oc3cc(C)[nH]c(=O)c32)c1 (configuration not stated)
i,-2,CCCCN(CCCC)CCNC(=O)CN1C(=O)COc2ccc(S(=O)(=O)N3CCC(C)CC3)cc21
i,0.71,CCC(C)(C)n1nnnc1C(c1cccnc1)N1CCN(c2cccc(C(F)(F)F)c2)CC1 (configuration not stated)
i,0.67,COc1ccc(OC)c(NC(=O)CSc2nc3ccccc3c(=O)n2CC2CCCO2)c1 (configuration not stated)
i,-0.85,COc1cc2c(cc1NC(=O)Cc1ccc(C)cc1)oc1ccccc12
i,-0.29,O=C(Nc1ccc(NC(=O)c2ccc(Cl)cc2Cl)cc1)c1cccs1
i,2.1,O=C(NCc1ccc2c(c1)OCO2)C1CC(c2ccc(Cl)cc2)=NO1 (configuration not stated)
i,-0.81,CCNC(=O)CCn1nc(-c2ccc(Cl)cc2)c2ccccc2c1=O
i,-0.08,CC(=O)N1CCN(c2nc3ccc([N+](=O)[O-])cc3s2)CC1
i,0.65,O=C(CC1C(=O)NCCN1C/C=C/c1ccccc1)NCCc1ccncc1 (configuration not stated)
i,1.4,O=C(O)CC1c2ccccc2CCN1S(=O)(=O)c1cccs1 (configuration not stated)
i,0.05,O=C(CSc1ncnc2c1sc1ccccc12)Nc1ccc(Br)cc1
i,1.7,CCN(c1ccccc1)S(=O)(=O)c1cc(C(=O)O)ccc1C
i,0.76,CCOC(=O)C1CCCN(C(=S)Nc2cccc(Cl)c2)C1 (configuration not stated)
i,2.4,CCOc1cc(C2Nc3ccccc3NC3=C2C(=O)CC(C)(C)C3)ccc1O (configuration not stated)
i,0.56,CCC(C)[C@H](NC(=O)NCc1ccco1)C(=O)O (some centres not stated)
i,1.2,O=C(Cc1nc2ccccc2[nH]1)c1cccc([N+](=O)[O-])c1
i,1.6,Cc1cc(C)n2c(SCC#N)nnc2n1
i,-2,Nc1ccccc1C(=O)NC1CCCNC1=O (configuration not stated)
i,1.1,C=COCCNC(=S)N1CCOCCOCCN(C(=S)NCCOC=C)CCOCCOCC1
i,-0.59,CCOC(=O)c1[nH]c2ccccc2c1NC(=O)C(C)(C)C
i,-1.3,CC(C)N(C(=O)Cn1cc(SCC(N)=O)c2ccccc21)C(C)C
i,0.53,Cc1ccc(S(=O)(=O)c2c(C)cc(C)nc2Cl)c(C)c1
i,-1.3,CN(Cc1ccc(F)cc1)C(=O)c1sccc1-c1ccccc1

One compound at a time, from the list above. Values in the order: KCNQ2 block	KCNQ2 block baseline
Nc1ccccc1C(=O)NC1CCCNC1=O (configuration not stated) as listed: i	-2
O=C(Cc1nc2ccccc2[nH]1)c1cccc([N+](=O)[O-])c1 as listed: i	1.2

(more compounds)
KCNQ2 block,KCNQ2 block baseline,molecule
i,1.1,CCOc1ccc2oc(C(=O)N3CCN(Cc4ccccc4)CC3)c(C)c2c1
i,0.64,O=C(NCc1ccc(F)cc1)C1CCCN1C(=O)Nc1ccc(F)cc1 (configuration not stated)
i,-1.3,CCCn1c(CCc2ccccc2)nnc1SCC(=O)N1CCOCC1
i,-1.4,CN(C)CCCN(C(=O)c1ccc(C(=O)c2ccccc2)cc1)c1nc2cc3c(cc2s1)OCCO3
i,0.21,COC(=O)c1ccc(NS(=O)(=O)c2cc3c4c(c2)CCN4C(=O)CC3)cc1
i,1.6,CCN(CC)S(=O)(=O)c1ccc(Cl)c(NC(=O)COC(=O)c2c(C)noc2C)c1
i,0.75,O=C(Nc1cccnc1Cl)c1cc(-c2ccc(O)cc2)on1
i,-0.46,CCOC(=O)C1(Cc2cccc(Cl)c2)CCCN(C(=O)c2cccc(C)n2)C1 (configuration not stated)
i,-2.5,CC(C)CC(=O)NC(=S)Nc1ccc(S(=O)(=O)Nc2nccs2)cc1
i,-0.01,CCc1ccc2c(c1)c1nnc(NN)nc1n2C
i,0.58,O=C(OCC(=O)c1ccc(Cl)s1)c1ccc(CO)cc1
i,1.5,CCOc1ccc(S(=O)(=O)NCCC(=O)N(CC)CC(=O)Nc2c(F)cccc2F)cc1
i,-1.4,Cc1c(C(=O)N2CCOCC2)c(S(=O)(=O)Nc2cccc(Br)c2)c(C)n1C
i,0.35,CC(C)C(=O)O/N=C1\CCS(=O)(=O)c2sccc21
i,-2.2,CC(=O)c1ccc(NC(=O)c2noc(C)c2[N+](=O)[O-])cc1
i,2.4,O=C(O)c1nn(CC(=O)N2CCN(c3ncc(C(F)(F)F)cc3Cl)CC2)c(=O)c2ccccc12
i,-0.94,FC(F)(F)c1cccc(Cc2noc(CN3CCCCC3c3ccccn3)n2)c1 (configuration not stated)
i,0.11,COc1ccc(NC(=O)CCc2nc(-c3ccc(C)cc3)no2)cc1Cl
i,0.66,CCOC(=O)C1C(=O)OC2(CCCC2)C1C(=O)OCC (configuration not stated)
i,0.3,COc1ccc(NC(=O)C23CC4CC(C2)CC(c2ccc(C)cc2)(C4)C3)cc1
i,1.9,Cc1ccc(-c2noc(CSc3nnc(-c4cccs4)n3C)n2)cc1
i,3,CCOC(=O)/C(C#N)=C1/C=CN(C)C(C)=N1
i,1.4,O=C(COc1ccc2ccc(=O)oc2c1)OCc1ccccc1
i,-1.9,COc1ccc2[nH]c3nc(SCc4nnc(-c5ccc(C)cc5)o4)nnc3c2c1

Structures from the list above containing an aryl methoxy group:
KCNQ2 block,KCNQ2 block baseline,molecule
i,1.2,CCC(C)N(C(=O)Cn1nnc2ccccc21)C(C(=O)Nc1ccc(F)cc1)c1cccc(OC)c1 (configuration not stated)
i,0.35,COc1cccc(-c2csc(N3CCN(C(=O)Nc4ccc(Cl)cc4)CC3)n2)c1
i,-0.27,COc1cc(S(=O)(=O)N2CCCCC2)ccc1NC(=O)c1ccncc1
i,-0.16,COc1ccccc1NC(=O)CNC(=O)Cn1cnc2sc(C)c(C)c2c1=O
i,0.17,COc1ccc(C(C(=O)NC(C)(C)C)N(C(=O)Cn2nnc3ccccc32)c2cccc(C(C)=O)c2)cc1O (configuration not stated)
i,-0.4,COc1ccc(OC)c(C2C(C#N)=C(N)Oc3cc(C)[nH]c(=O)c32)c1 (configuration not stated)
i,0.67,COc1ccc(OC)c(NC(=O)CSc2nc3ccccc3c(=O)n2CC2CCCO2)c1 (configuration not stated)
i,-0.85,COc1cc2c(cc1NC(=O)Cc1ccc(C)cc1)oc1ccccc12
i,0.11,COc1ccc(NC(=O)CCc2nc(-c3ccc(C)cc3)no2)cc1Cl
i,0.3,COc1ccc(NC(=O)C23CC4CC(C2)CC(c2ccc(C)cc2)(C4)C3)cc1
i,-1.9,COc1ccc2[nH]c3nc(SCc4nnc(-c5ccc(C)cc5)o4)nnc3c2c1

Following part.
KCNQ2 block,KCNQ2 block baseline,molecule
i,0.76,CCOc1ccccc1NC(=O)/C(C#N)=C/c1cccnc1
i,1,C=CCOC(=O)C1=C(C)NC(=O)NC1c1cc2c(cc1Br)OCO2 (configuration not stated)
i,0.79,Cc1cc(C)n(CCNC(=O)CC2C(=O)NCCN2Cc2ccccc2C(F)(F)F)n1 (configuration not stated)
i,1.2,COc1ccc2c(c1)C(c1ccc(C)o1)=NNC(c1cccnc1)=N2
i,-0.13,COc1cc(C(=O)OCc2ccc(C)cc2)cc(NC(=O)c2cccs2)c1OC
i,0.54,Cc1ccc(-n2c(C)nnc2SCC(=O)N2CCOCC2)cc1
i,0.03,CCOC(=O)c1cc2c(s1)-c1ccccc1CC2
i,-1.4,C/C=C(/C)C(=O)O[C@@H]1c2c(ccc3ccc(=O)oc23)O[C@@H]1C(C)(C)OC(=O)/C(C)=C\C
i,-0.79,Cc1ccc(C)c(NC(=O)CSc2nnc(CNC(=O)c3cccs3)o2)c1
i,0.87,CCOC(=O)C1CCN(C(=O)C2(NC(=O)NC3CCCCC3)CCCCC2)CC1
i,-0.54,CCOC(=O)Cn1nc(/C=C/c2ccc(OC)cc2)ccc1=O
i,0.3,O=C1OC/C(=C(/O)c2ccc(Cl)cc2)C1=O
i,1.3,Cc1ccc(OCc2nnc(SCC(=O)c3ccccc3)n2-c2ccccc2)cc1
i,0.4,O=C(CN1C(=O)NC2(CCCCCC2)C1=O)NCc1cccs1
i,-1.6,CC(C)OCCCNC(=O)c1cc(S(=O)(=O)N2CCCCC2)c[nH]1
i,-1.8,CCOC(=O)C1CCN(C(=O)c2cccnc2Oc2ccccc2)CC1
i,0.99,Cc1cc(C)cc(-n2ncc3c2CCCC3NC(=O)CN2CCCC2=O)c1 (configuration not stated)
i,-0.76,COc1cccc(CNC(=O)C2=Cc3cccc(OC)c3OC2)c1
i,0.03,Cc1nc(NC(=O)/C=C/c2ccco2)sc1C
i,0.96,C[C@@H]1CN(C(=O)c2nc3ccc(Cl)cn3c2CNCC[C@@H]2C[C@@H]3C=C[C@H]2C3)C[C@H](C)O1
i,0.58,Cc1ccc(N2C(=O)N(C(C)C)C(C)(C)CC2(C)O)cc1 (configuration not stated)
i,1.4,Cc1ccc(OCc2nnc(SCc3cc(=O)[nH]c4ccccc34)o2)cc1
i,-0.58,CCc1nnc(NC(=O)CSc2nnc(-c3cc4ccccc4cc3O)n2CC)s1
i,-0.78,Cc1ccc(C)c(NC(=S)NC(NC(=O)Cc2ccccc2)C(Cl)(Cl)Cl)c1 (configuration not stated)
i,0.73,Cc1ccc(C(=O)NNC(=O)C(C)Oc2ccccc2F)cc1S(=O)(=O)N1CCOCC1 (configuration not stated)
i,1.9,Cc1ccc(S(=O)(=O)NCCNc2ccc([N+](=O)[O-])cc2C(F)(F)F)cc1
i,-1.1,C=CCOc1ccc(/C=C2\SC(=S)N(C(C(=O)O)c3ccccc3)C2=O)cc1 (configuration not stated)
i,-1,c1ccc(N2CCN(Cc3nc4ccccc4[nH]3)CC2)nc1
i,1.7,O=[N+]([O-])c1ccc(C2Nc3cccc4cccc(c34)N2)cc1
i,-1,COc1ccc(NC(=O)CSc2nc3ccccc3c(=O)n2CCC(=O)N2CCCCC2)cc1
i,0.55,O=C(Nc1cccc(Cl)c1N1CCCCC1)c1ccc2c(c1)OCCO2
i,-1.1,Cc1ccc(-c2nnc(N3CCN(C(=O)c4ccco4)CC3)c3ccccc23)cc1
i,-0.06,Cc1c(Cl)cccc1-n1ccnc1SCC(=O)O
i,0.25,Cn1c(O)c(C=NC(CC(N)=O)C(=O)O)c(=O)n(C)c1=O (configuration not stated)
i,0.03,Cc1cc(C)cc(NC(=O)c2ccc(CNc3c(N4CCCC4)c(=O)c3=O)cc2)c1
i,-0.79,O=[N+]([O-])c1ccc(O)c(CN2CCCCCC2)c1
i,0.69,Cc1nn(C)c(Cl)c1CN1CCN(CCC(C)C)C(CCO)C1 (configuration not stated)
i,0.43,Cc1ccc(CNC(=O)c2ccc(CS(=O)(=O)c3ccccc3C)o2)cc1
i,-1.9,N#C/C(C(N)=O)=C1/CCCN1Cc1ccccc1
i,0.75,Cc1noc(C)c1C(=O)OCC(=O)c1ccc[nH]1
i,-2.8,COc1ccc(N2CCN(C(=O)CSc3nnc(-c4cc5ccccc5cc4O)n3C)CC2)cc1

Bioassay records (PubChem BioAssay)

This is a subset, so the mix of outcomes need not match the whole.
